ClpP mod: qHTS Assay for Activators of ClpP; ATP-dependent Clp protease proteolytic subunit (Bacillus subtilis (strain 168)), P80244; purified B. subtilis ClpP, FRET peptide cleavage, 20 min; Potency, µM (doses to about 57.5 µM), for the others: top-dose activity change, negative = active; 340,000 compounds, 1.9% hits; AID 651965, 2013; active = well fitted falling curve with a large enough effect; inconclusive = small, poorly fitted or top-dose-only effect; inactive = no such curve, though single readings can be large or run the other way; note: potency is the fitted concentration of half-maximal effect; the source files actives as falling curves though it sought activators and does not explain the sign; nearly all actives have a fitted effect of over 65% in size; many hits overshoot -100%
Target sequence (P80244 whole entry, looked up): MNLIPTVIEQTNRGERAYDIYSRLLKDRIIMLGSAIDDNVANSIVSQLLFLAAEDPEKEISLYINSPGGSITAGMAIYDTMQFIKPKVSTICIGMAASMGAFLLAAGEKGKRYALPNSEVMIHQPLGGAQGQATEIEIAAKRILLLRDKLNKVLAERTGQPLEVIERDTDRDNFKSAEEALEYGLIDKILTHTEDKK
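FRET quenching reversal measured ClpP activation: 10 microg/mL B. subtilis ClpP at pH 8 with the FRET-FV decapeptide, read at 430 nm after 320 nm excitation. The 20-min minus 0-min signal was scaled between DMSO/no-enzyme wells and ADEP (5.8 microM final).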
gsp ag: qHTS for Agonist of gsp, the Etiologic Mutation Responsible for Fibrous Dysplasia/McCune-Albright Syndrome: qHTS. gsp mutant cells, cAMP HTRF, 30 min; control for the full effect not named in the record. Potency, µM (titrated, usually from 76.9 µM), for inactives: at the highest dose activation (cAMP increase), hits mostly activators. 340,000 compounds, 0.13% hits. AID 624287, 2012; active = well fitted activation curve with a large enough effect; inconclusive = small, poorly fitted or top-dose-only effect, or another doubt; inactive = no such curve, though single readings can be large or run the other way; cell line not stated here;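 note: phosphodiesterase inhibitor Ro 20-1724 added with compounds to block cAMP breakdown; potency is the fitted concentration of half-maximal effect; nearly all actives have a fitted effect of over 60% in size; about a fifth of the inactives were tested at one dose only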
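Cells stably selected in G418 were plated at 2000/well, grown 16-24 hr, then given compounds in DMSO with the PDE inhibitor […] (300 uM solution added) for 30 min at 37C; cAMP was read by HTRF.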
TRPV1 potentiator: HTS Assay for Compounds that Act as Potentiators of the Vanilloid Receptor 1; Transient receptor potential cation channel subfamily V member 1 (Homo sapiens), Q8NER1; TRPV1-expressing cells, Fluo-8 calcium influx, capsaicin EC20 potentiation; host cell line not named in the record; control for the full effect not named in the record; potentiation, % at 8.33 µM; 320,000 compounds, 0.02% hits; AID 540277, 2011; active means potentiation above 80%; inconclusive means 30% to 80%; inactive means below 30%; note: 0% is about no effect
Target sequence (Q8NER1 whole entry, looked up): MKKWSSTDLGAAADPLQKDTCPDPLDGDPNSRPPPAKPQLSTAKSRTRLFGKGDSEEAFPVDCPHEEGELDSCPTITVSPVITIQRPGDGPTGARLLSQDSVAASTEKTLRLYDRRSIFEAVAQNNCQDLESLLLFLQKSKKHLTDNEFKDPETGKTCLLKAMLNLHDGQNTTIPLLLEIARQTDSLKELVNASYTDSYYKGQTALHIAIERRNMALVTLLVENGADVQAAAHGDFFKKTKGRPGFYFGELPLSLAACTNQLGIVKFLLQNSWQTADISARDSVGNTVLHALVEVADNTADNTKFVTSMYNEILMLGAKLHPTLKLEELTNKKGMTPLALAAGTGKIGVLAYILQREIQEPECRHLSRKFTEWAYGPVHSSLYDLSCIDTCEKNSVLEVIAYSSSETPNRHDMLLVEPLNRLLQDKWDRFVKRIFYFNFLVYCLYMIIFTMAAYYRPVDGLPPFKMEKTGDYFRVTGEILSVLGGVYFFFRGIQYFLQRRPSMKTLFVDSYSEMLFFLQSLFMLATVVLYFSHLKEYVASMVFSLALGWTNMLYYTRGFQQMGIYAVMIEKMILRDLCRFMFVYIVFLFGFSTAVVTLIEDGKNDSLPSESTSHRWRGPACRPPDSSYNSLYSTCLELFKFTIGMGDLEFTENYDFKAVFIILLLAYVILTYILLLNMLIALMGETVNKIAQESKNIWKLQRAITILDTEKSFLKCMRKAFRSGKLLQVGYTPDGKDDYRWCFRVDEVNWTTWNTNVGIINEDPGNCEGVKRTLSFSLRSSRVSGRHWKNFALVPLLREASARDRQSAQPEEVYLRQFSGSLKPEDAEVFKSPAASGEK
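TRPV1-expressing cells were cultured overnight at 35.5C and loaded with Fluo-8 calcium dye for 40 to 90 min at room temperature. After a 10 s baseline, compound was added and calcium influx was read kinetically for 3 min (ex 480/em 520 nm).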
Sfp PPTase inh: qHTS Assay for Inhibitors of Bacillus subtilis Sfp phosphopantetheinyl transferase (PPTase) | 310,000 compounds, 3.5% hits | Biochemical Sfp PPTase activity, qHTS | 4'-phosphopantetheinyl transferase ffp (Bacillus subtilis), Q9F4F7 | AID 1490, 2009 | Potency, µM, for the others: max response, negative = inhibition, most hits filed as inhibitors; active = well fitted inhibition curve with a large enough effect; inconclusive = small, poorly fitted or top-dose-only effect, or another doubt; inactive = no such curve, though single readings can be large or run the other way;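 note: the enzyme is Sfp with the accession as filed and its product quenches rhodamine fluorescence; potency is the fitted concentration of half-maximal effect; 0% = enzyme reaction without inhibitor and -100% = no enzyme wells; top concentration of the series not given in the record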
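Fluorescence-quenching assay: 15 nM Sfp-PPTase preincubated 15 min at room temperature with compound, then 5 uM rhodamine-CoA and 12.5 uM BHQ-2-labelled YbbR peptide added. Fluorescence (ex 525/em 598 nm) read at start and after 30 min; difference gives rate.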
TRPML1 inh: qHTS for Inhibitors of the Human Mucolipin Transient Receptor Potential 1 (TRPML1) | 390,000 compounds, 0.02% hits | activity change, negative = inhibition, % (concentration not given with the values) | AID 624415, 2012 | Mucolipin-1 (Homo sapiens), Q9GZU1 | TRPML1-inducible cells, Ca2+ dye fluorescence, FDSS; hits give low values; inhibition of EC80 agonist-evoked calcium signal; in the data active means activity change below about -50%; inconclusive means about -30% to -50%; inactive means above about -30%;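 note: stimulus is agonist 54-4 at its EC80 concentration; % is set by controls: 0 for no effect and ±100 for the full control effect; the text of the record puts the active cut at -80%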
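Calcium fluorescence in TRPML1-DL cells induced overnight with Tet: a 110 s read after compound pin addition, then a 110 s antagonist read after challenge with 54-4 at 4 uM final (EC80).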
gsp antagonist: qHTS for Antagonists of gsp, the Etiologic Mutation Responsible for Fibrous Dysplasia/McCune-Albright Syndrome: qHTS | Potency, µM (highest dose often 76.9 µM), without a hit: at the highest dose activity change, negative = inhibition, hits mostly inhibitors | gsp-mutant cells, cAMP HTRF, 30 min; control for the full effect not named in the record | 340,000 compounds, 0.4% hits; active = falling curve of any shape with a large fitted effect; inconclusive = falling curve, mostly with a smaller effect; inactive = flat or rising curve; cell line not stated here;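 note: intracellular cAMP measured with PDE inhibitor Ro 20-1724 present during compound exposure; potency is the fitted concentration of half-maximal effect; % is set by controls: 0 for no effect and ±100 for the full control effect; nearly all actives have a fitted effect of over 65% in size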
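HTRF cAMP measurement after 30 min RT detection following 30 min, 37C compound treatment alongside […] (added as 300 uM solution) in G418-selected cells seeded at 2000/well and grown 16–24 h.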
Menin-MLL FL inh: qHTS Assay for Inhibitors Targeting the Menin-MLL Interaction in MLL Related Leukemias: Competition With Fluorescein Labeled MLL-derived Peptide; Fluorescence polarization, fluorescein-MLL peptide displacement from menin; FP activity change, % at 61.4 µM; 290,000 tested, under 10 active; inconclusive = falling polarisation curve, or a change in total fluorescence; inactive = total fluorescence flat and polarisation flat or rising; no compound was filed as active; the % refers to the polarisation; negative = inhibition;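 note: % of control where 0% means no effect; inhibitors lower the polarisation; unlabelled MLL peptide was the positive control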
* hit, by the source's call; ? = inconclusive; / = no result given; [ ] = remark or other dose.

smiles,ClpP mod,TRPML1 inh,Sfp PPTase inh,gsp antagonist,Menin-MLL FL inh,gsp ag,TRPV1 potentiator
CC(=O)Nc1ccc(C(=O)OCC(=O)N(Cc2ccccc2)C(C)(C)C)cc1,-0.7%,10,2%,0%,-1.4,-12%,?
COC(CNC(=O)Cn1ncc2ccsc2c1=O)OC,0.2%,10,20%,-6%,-0.5,12%,1
CC(=O)Nc1cccc(NC(=O)COc2ccc3c(c2)OCO3)c1,/,3,2%,0%,-4.6,-34%,-5
O=C(Nc1ccc2c(c1)N(Cc1ccccc1)C(=O)c1ccccc1S2)NC1CC1,0.1%,2,-7%,-15%,6.3,5%,-2
COc1ccc(-c2nnc(SCCC(=O)O)n2C)cc1OC,-2.5%,-14,13%,8%,-2.2,-32%[inhibitor],5
CCCC(C)C(=O)N(Cc1ccccc1)c1ccccn1 (centres undefined),-1.3%,25,4%,0%,5.7,-61%[inhibitor],-8
O=C(CN1CCC(C(=O)c2ccc3c(c2)OCCO3)CC1)NC1CCCC1,-15%,10,-3%,-6%,4.1,-45%,-11
COCC(=O)Nc1ccc(S(=O)(=O)Nc2onc(C)c2C)cc1,-1.8%,-11,/,/,/,0%,/
CCOC(=O)C1=C(C)N(C)C(=O)C1CC(=O)O (centres undefined),-3.4%,10,12%,9%,-0.4,-1%,5
CN(C)c1ccc(/C=N/NC(=O)c2ccc(-n3cnnn3)cc2)cc1,1.2%,12,/,4%,/,-26%,-24
CCOc1cc(C2NN=C(c3ccc(C)cc3)S2)ccc1O (centres undefined),-16%,49,-10%,?,16,?,4
O=C(NCCO)C(=O)Nc1cc2c3c(c1)CCC(=O)N3CCC2,-0.4%,24,20%,5%,-3.1,-32%,-6
COc1ccc(C)cc1NC(=O)C(c1ccccc1)N1CCN(CC(=O)N2CCCC2)CC1 (centres undefined),/,14,/,-5%,/,9%[15.4 µM],7
O=C1c2cc([N+](=O)[O-])ccc2-c2cc(Br)c(N=C(NO)C(F)(F)F)cc21,0.8%,25,/,-35%,/,12%,/
CC(CCc1ccccc1)NC(=O)CCC(=O)N1CCC(C(N)=O)CC1 (centres undefined),0.3%,23,-2%,5%,1.3,-20%,0
CCOC(=O)c1cnn(-c2ccccc2)c1-n1cccc1C(=O)C(=O)Nc1ccccc1C(F)(F)F,-22%,11,3%,-7%,2.5,24%,0
CNC(=O)OC(C)CNS(=O)(=O)c1ccc(C)cc1 (centres undefined),-2.1%,10,18%,4%,0.8,-3%,7
CC(=O)Nc1ccc2c(c1)C(=O)c1ccccc1C2=O,-2.5%,15,-9%,-2%,-0.4,-2%,-7
COCCNC(=O)/C(C#N)=C/c1cccc(NC(=O)c2ccccc2Cl)c1,-6.3%,3,5%,0%,-0.6,7%,-2
CC[n+]1c(/C=C/c2ccc(OC)c(OC)c2)ccc2ccccc21,-20%,-3,-12%,-5%,?,-32%,-8
CCSCCCn1[nH]c2ccccc2c1=O,-25%,13,/,/,/,14%,/
CC(=O)Oc1ccc(C(=O)O)c(OC(C)=O)c1,3.4%,18,14%,20%,0.9,11%,/
NC(=O)c1nn(CC(=O)Nc2cccc(S(=O)(=O)N3CCCC3)c2)c(=O)c2ccccc12,1.4%,19,/,1%,/,21%,-7
CC(C)(C)c1ccc(OCCC(=O)OCC(=O)Nc2ccc(N3CCOCC3)cc2)cc1,1.3%,2,/,5%,/,-5%[15.4 µM],-10
O=C(CN1CCN(Cc2ccccc2)CC1)N/N=C\C=C/c1ccco1,-2.7%,4,-13%,-9%,6.0,4%,1
COc1ccc(OC)c(C(=O)COC(=O)c2ccccc2O)c1,-15%,12,-6%,-11%,4.4,8%,-6
Cc1nc(NN)nc(NCc2ccccc2)n1,2.4%,-24,-13%,7%,6.3,-42%[inhibitor],0
O=C(COC(=O)c1cc(S(=O)(=O)N2CCCCC2)ccc1N1CCOCC1)c1ccc(Cl)cc1,/,35,/,-5%,/,24%[15.4 µM],14
O=C(CSc1nc2ccccc2o1)NC(=O)NCc1ccco1,-3.4%,17,-31%,2%,-0.1,-26%,16
CC1CCN(CCNC(=O)c2ccc(NC(=O)C3CCCO3)cc2)CC1 (centres undefined),-1.9%,2,15%,11%,-0.2,0%,7
COC(=O)c1c(NC(=O)COC(=O)c2ccc(O)cc2)sc2c1CCCCC2,/,-5,?,?,2.1,-14%,-2
O=C(C[n+]1cc(-c2ccc(Cl)c(Cl)c2)n2c1CCC2)N1c2ccccc2Sc2ccccc21,1.0%,2,45µM*,9%,5.2,5%,-20
COCCCNC(=O)C(=O)Nc1cc2c3c(c1)CCN3C(=O)CC2,0.5%,-2,6%,1%,5.5,-33%[inhibitor],-1
CN(C)S(=O)(=O)c1cc(NC(=O)CN2CCN(c3ccc(O)cc3)CC2)ccc1Cl,-0.8%,9,-99%,1%,1.0,-10%[15.4 µM],-8
O=C(O)CCc1ccc(-c2cccs2)o1,-9.3%,-2,2.8µM*,1%,12,-25%,10
OCC1(CCOc2ccccc2)CCN(Cc2ccc(OC(F)F)cc2)CC1,/,-1,4%,10%,1.0,-27%,-1
CCCCn1nnnc1NCc1ccc(OC)c(OC)c1,0.7%,4,2%,23%,0.9,-34%[inhibitor],0
COc1ccccc1NC(=O)C(C)Sc1nc(-c2ccccc2)cn1N (centres undefined),0.1%,-13,/,-4%,/,1%,-8
O=c1[nH]c(=O)n2ncnc2[nH]1,-1.7%,34,/,/,/,-96%[inhibitor],/
C=CCN(CC=C)C(=O)CN1C(=O)c2ccccc2C1=O,-3.6%,-9,12%,-2%,2.8,-3%,0
COc1ccc(S(=O)(=O)N2CCN(C(=O)C3CCCCC3)CC2)cc1,/,-12,16%,-1%,0.0,-16%[15.4 µM],17
O=C(CCC(=O)Nc1ccccc1Cl)NNC(=O)c1ccccc1[N+](=O)[O-],0.3%,17,13%,6%,5.1,?,-3
CCC(C)NC(=O)NCc1ccccc1F (centres undefined),/,-10,14%,4%,-1.1,3%[15.4 µM],-3
c1ccc(CSc2nnnn2-c2cccc3ccccc23)nc1,1.1%,-6,1%,3%[15.4 µM],-7.1,17%,?
COc1ccc(/C=C/C(=O)NCC(c2ccc(F)cc2)N2CCOCC2)cc1OC (centres undefined),-20%,/,3%,?,-0.9,-13%,0
O=C(CCOc1ccccc1)Nc1ccnn1C1CCN(Cc2ccc(CO)o2)CC1,1.0%,10,16%,6%,/,2%[15.4 µM],7
c1ccc(-n2cc(CN3CCCC3)c(-c3ccc4c(c3)OCO4)n2)cc1,4.0%,-7,-28%,13%,1.2,-10%,1
CC(C)NC(=O)c1cccc(NC(=O)CC2SC(N3CCCCC3)=NC2=O)c1 (centres undefined),1.2%,3,/,6%,/,-12%,9
Cc1cccc(C)c1NC(=O)CSc1nnc(NC(=O)CN2CCOCC2)s1,-3.8%,18,-17%,11%,3.5,-50%[inhibitor],-4
COc1cccc(CN2CC(C(=O)NCCN3CCOC3=O)CCC2=O)c1 (centres undefined),0.7%,10,12%,16%,0.6,?,-25
CC(=N/O)/C(C)=N\NC(=O)c1ccccn1,0.0%,0,?,-5%,5.4,-5%,26
Cc1ccc(C(=O)COC(=O)CCc2ccc(S(=O)(=O)N3CCCCC3)cc2)cc1,-8.8%,-8,8%,1%,-3.5,-63%[inhibitor],-7
CCOC(=O)C1(Cc2ccccc2C(F)(F)F)CCN(C2CCCC2)CC1,/,32,-4%,3%,-2.3,?,24
O=C(N/N=C/c1ccccc1O)C(=O)Nc1ccccn1,0.4%,-14,13%,6%,28,1%,1
Cn1cc(/C=C(\C(=O)O)C(C(=O)O)=C2CCCCC2)c2ccccc21,/,12,2%,8%,0.3,-3%[15.4 µM],10

Whole records, looked up by structure. Order of screens: ClpP mod | TRPML1 inh | Sfp PPTase inh | gsp antagonist | Menin-MLL FL inh | gsp ag | TRPV1 potentiator
`Cc1nc(NN)nc(NCc2ccccc2)n1` across the screens: 2.4% | -24 | -13% | 7% | 6.3 | -42%[inhibitor] | 0
`CC[n+]1c(/C=C/c2ccc(OC)c(OC)c2)ccc2ccccc21` across the screens: -20% | -3 | -12% | -5% | ? | -32% | -8
`CC(=O)Nc1ccc2c(c1)C(=O)c1ccccc1C2=O` across the screens: -2.5% | 15 | -9% | -2% | -0.4 | -2% | -7
`CCOc1cc(C2NN=C(c3ccc(C)cc3)S2)ccc1O` (centres undefined) across the screens: -16% | 49 | -10% | ? | 16 | ? | 4

Screens: PubChem, National Center for Advancing Translational Sciences (NCATS)
